WNV protease inh = inhibitors of WNV NS2B-NS3 protease, primary screen, biochemical, fluorogenic substrate; hit rate 0.18% among 65,000; fluorogenic substrate Ex360/Em465; active compounds read low; AID 577, 2007; z-score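 (tested at a level between 10 and 100 µM)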; Genome polyprotein (West Nile virus), P06935;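 active means z-score at -3 or under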;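 further: score is relative to mean and spread of the compound wells of a plate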
Target sequence (P06935 1371-1501 limits assumed): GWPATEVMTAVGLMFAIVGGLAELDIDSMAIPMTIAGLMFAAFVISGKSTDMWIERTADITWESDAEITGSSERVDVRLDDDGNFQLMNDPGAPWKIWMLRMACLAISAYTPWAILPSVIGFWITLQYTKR
Target sequence (P06935 1502-1679 limits assumed): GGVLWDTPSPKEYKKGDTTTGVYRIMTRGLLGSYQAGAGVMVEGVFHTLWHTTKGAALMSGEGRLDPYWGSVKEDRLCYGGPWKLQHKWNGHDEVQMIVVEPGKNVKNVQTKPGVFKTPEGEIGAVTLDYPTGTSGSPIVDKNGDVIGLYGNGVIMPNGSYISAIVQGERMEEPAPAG
* hit, by the source's call. An excerpt; count on the stated rates, not on these rows.

compound | WNV protease inh
CCC(Sc1nc(N)c(NC(=O)c2ccc(OC)c(OC)c2)c(=O)[nH]1)C(=O)OC (configuration not stated) | -0.06
O=C(CSc1nnc2scc(-c3ccccc3)n12)NCc1ccco1 | -0.9
O=C(CN1C(=O)CC(c2ccco2)Sc2ccccc21)Nc1ccc2c(c1)OCCO2 (configuration not stated) | -0.07
Cc1ccc(NC2=CC(=O)CCC2)cc1C | 0.07
COc1ccc(-c2noc(CCC(=O)NCCCN3CCC(C)CC3)n2)cc1 | -0.88
Cn1cc(S(=O)(=O)N2CCN(c3cccc(C(F)(F)F)c3)CC2)c(=O)n(C)c1=O | -0.24
COc1ccc(N2CCN(C(CNS(=O)(=O)c3cc(F)ccc3F)c3cccnc3)CC2)cc1 (configuration not stated) | 0.97
C/C(=N\O)C1/C(=N/O)CC2C1C2(C)C (configuration not stated) | 0.08
COc1cc(NC(=O)CCN2CCN(Cc3ccccc3)CC2)cc(OC)c1 | 0.61
O=S(=O)(NCCNS(=O)(=O)c1ccccc1)c1ccccc1 | 2.42
Cc1ccc(S(=O)(=O)Cn2nnnc2C(CC(C)C)N2CCN(C(=O)c3ccco3)CC2)cc1 (configuration not stated) | -1.17
CCNC(=O)CN(c1ccc(CC)cc1)S(C)(=O)=O | 0.13
CC(=O)NS(=O)(=O)c1ccc(NC(=O)CCC2CCCC2)cc1 | -0.42
COc1ccc(CN2CC(C(=O)NCCN3CCN(c4ccccc4F)CC3)CC2=O)cc1 (configuration not stated) | -0.65
CCCOc1ccc(C(=O)c2nc3c(n2O)CCCC3)cc1 | -0.53
Cc1ccc(N)c(C(O)(C(F)(F)F)C(F)(F)F)c1 | 0.85
COc1ccccc1N(CC(=O)Nc1c(C)cccc1C)S(C)(=O)=O | -0.68
CCOC(=O)c1cc2c(=O)n3ccccc3nc2n(CC(C)C)c1=NC(=O)c1ccco1 | 0.54
CN(C)CC(O)COc1ccc(-c2ccc(C#N)cc2)cc1 (configuration not stated) | 1.32
Cc1ccc(NC(=O)C2CCCN2S(=O)(=O)c2cccc3cccnc23)cc1F (configuration not stated) | -1.68
CCOC(=O)c1ccc(NC(=O)CSc2nnc(CNC(=O)c3c(F)cccc3Cl)o2)cc1 | -0.52
CCOC(=O)C(C)Oc1cccc2c(=O)n(CC(=O)NCc3ccc4c(c3)OCO4)ccc12 (configuration not stated) | 0.87
O=c1nc(-c2ccccc2)n(-c2ccccc2)c2ncccc12 | -1.49
COC(=O)c1cccc(OCC(O)Cn2cnc3cc(C)c(C)cc32)c1 (configuration not stated) | 1.45
N#Cc1ccccc1Cn1c(=O)n(Cc2ccc(C(=O)NCc3ccco3)cc2)c(=O)c2sccc21 | 0.85
CN1CCN(C(=O)C23CC4CC(CC(C4)C2)C3)CC1 | 1.06
O=C(CN1C(=O)NC2NC(=O)NC21)NC1CCCCC1 (configuration not stated) | 0.07
CCCSCCCNC(=O)c1cc2c(s1)CS(=O)(=O)C2 | -0.97
COC(=O)c1ccc(CSc2nnc(CNC(=O)c3ccccc3F)o2)o1 | -0.83
CC(C)CCn1cnc2c(cnn2-c2ccc(F)cc2)c1=O | 0.76
COc1ccccc1C(=O)Nc1nnc(-c2ccc(F)cc2)o1 | 2.16
Cc1nc2ccccc2c(=O)n1/N=C/c1cccnc1 | 0.44
CCOC(=O)N1CCC(NC(=O)c2cc(C(=O)NC3CCCC3)ccc2CO)CC1 | -0.57
CC(=O)N(c1ccc(C)cc1)C1C=CS(=O)(=O)C1 (configuration not stated) | 0.63
CCOc1ccc(CNC(=O)C2CCN(S(=O)(=O)N3CCCC3)CC2)cc1OC | -0.13
CN(CC(=O)N1CCCCCC1)S(=O)(=O)c1ccc(Br)s1 | -0.61
Cc1ccnc(SCC(=O)Nc2oc(-c3ccccc3)c(-c3ccccc3)c2C#N)n1 | -0.47
CCOC(=O)c1ccc(NC2c3ccccc3C(=O)N2c2cccnc2)cc1 (configuration not stated) | -0.5
CCN1CCN(c2ncnc3c2sc(=S)n3-c2ccccc2)CC1 | -1.06
C=CCn1c(SC(CCO)C(=O)NCc2ccco2)nc2sc3c(c2c1=O)CCC3 (configuration not stated) | -0.45
CCN(CC)S(=O)(=O)c1ccc(C(=O)Nc2ncn(Cc3ccccc3)n2)cc1 | 2.16
CCC1(C)Cc2ccccc2-c2c1c(=O)n(Cc1ccccc1)c1nnnn21 (configuration not stated) | -0.05
CCN(CC)CCOc1ccc(Br)cc1 | -0.82
COc1ccc(NC(=O)C2CCCN(S(=O)(=O)c3cccc4nonc34)C2)c(OC)c1 (configuration not stated) | -1.04
CC(=O)n1cc(-c2ccncc2)c2ccccc21 | 1.46
CCOc1ccc(C(=O)N(C)C2CCS(=O)(=O)C2)cc1 (configuration not stated) | 0.02
CCOC(=O)c1cc2c(=O)n3ccccc3nc2n(CCCOC)c1=NC(C)=O | 5.68
COc1cc(NC(=O)CCc2ccccc2)nc(OC)n1 | 0.53
CCN1C(=O)C2(Nc3ccccc3-c3nc4ccccc4n32)c2cc(OC)ccc21 (configuration not stated) | -0.44
O=C(CCCn1c(=O)[nH]c2cc(Cl)ccc2c1=O)NCCN1CCN(c2ccccc2)CC1 | 0.03
CCOC(=O)c1c(C)nn(Cc2ccccc2)c1N | -0.24
CCCCCNC(=O)C(C)NS(=O)(=O)c1ccc(OC)cc1 (configuration not stated) | -0.37
CCNc1nc(NCC)nc(Nn2cnnc2)n1 | 0.84
Cc1ccc(O)c(-c2cc(C(=O)Nc3ccc(S(=O)(=O)N4CC(C)OC(C)C4)cc3)[nH]n2)c1 (configuration not stated) | -0.35
C=CCSC1=N/C(=C\c2ccc(C)o2)C(=O)S1 | -1.34
O=C(COc1ccc(Cl)cc1)NCc1nnc(SCC(=O)N2CCCCC2)o1 | 0.31

The results go on.
compound | WNV protease inh
CC1(C)CC(=O)c2sc(NC(=O)C3CC3)nc2C1 | -0.45
CC(CC(=O)O)NCC1COc2ccccc2O1 (configuration not stated) | 2.54
CC(=O)N1CCN(c2nc3cc4c(cc3nc2NS(=O)(=O)c2ccccc2)OCCO4)CC1 | 1.26
COC(=O)C1=C(C(=O)c2ccccc2)C(c2ccc(O)c(OC)c2)n2nnnc2N1 (configuration not stated) | -0.77
O=C(Oc1ccccc1C(=O)N1CCOCC1)c1ccc(Br)cc1 | 0.1
CN1CCN(CCc2nc3cc(NC(=O)COc4ccccc4)ccc3n2C)CC1 | 0.37
CN1C(=O)CSc2ccc(NC(=O)N3CCOCC3)cc21 | -0.99
O=C(COC(=O)CCc1c[nH]c(=O)[nH]1)Nc1ccccc1 | -0.86
COc1ccc(Nc2cccccc2=O)cc1 | 0.52
O=C1C2CC=C(Cl)CC2C(=O)N1CCc1c[nH]c2ccccc12 (configuration not stated) | 0.84
COC(=O)c1ccc(-c2sc3nc(N4CCOCC4)c4c(c3c2N)CC(C)(C)OC4)o1 | -0.0012
COc1ccc(S(=O)(=O)N(C)c2ccc(C(=O)N3CCOCC3)cc2)cc1OC | 1.41
Cc1oc(-c2ccc(Cl)cc2)nc1CS(=O)CC(=O)NCCCN(C)C1CCCCC1 (configuration not stated) | 0.27
Cc1ccc(Cn2ccc(NC(=O)c3c(-c4ccccc4Cl)noc3C)n2)cc1 | -0.58
Cc1ccc2[nH]c(-c3ccccc3)c(CN3CCN(C)CC3)c(=O)c2c1 | -1.77
Cc1cc(C(=O)NCc2ccccc2Br)no1 | -0.5

(continued)
Molecule,WNV protease inh
CC1CCCCN1CCNC(=O)c1ccc2c(=O)n(CCc3ccccc3)c(=O)[nH]c2c1 (configuration not stated),0.93
COC(=O)C1=C(NC(=O)c2cccc(C)c2)CCS1,-0.54
Cc1cn(S(=O)(=O)c2ccc(Br)c3ccccc23)cn1,1.86
CCn1c(CNC(=O)c2cccs2)nnc1SCC(=O)NCCc1ccccc1,1.28
CCNc1nc(NC(C)(C)C)nc(N(C#N)CC)n1,-0.93
Nc1nnc(SCC(=O)NCc2ccc3c(c2)OCO3)s1,-1.56
COc1ccc(N(C)C(=O)CCS(=O)(=O)c2cccc3nonc23)c(OC)c1,-0.6
O=C(CSc1nnc(CNC(=O)c2ccco2)o1)c1ccc(Cl)cc1,-0.17
COc1cc(NC(=O)C2CCN(S(=O)(=O)c3cccnc3)CC2)cc(OC)c1OC,-0.66
CCOC(=O)c1nc(N)sc1C(=O)OCC,0.7
O=C(c1n[nH]c(=O)c2ccccc12)N1CCN(C2c3ccccc3-c3ccccc32)CC1,0.28
Cc1nccn1CCc1nc(N)nc(N)n1,0.44
CCN1CCN(Cc2c(C)[nH]c3ccc(OC)cc3c2=O)CC1,-0.45
CC1(C)CC(=O)C(C=NC2CC(C)(C)NC(C)(C)C2)=C(O)C1,1.35
O=C(NCc1nnc(SC/C=C/c2ccccc2)o1)c1ccco1,-1.12
Cc1ccc(C(=O)Nc2ccc(S(=O)(=O)N3CCc4ccccc43)cc2)o1,-0.39
COc1ccccc1NC(=O)C1=C(C)NC2=C(C(=O)CCC2)C1c1ccc(C)o1 (configuration not stated),0.18
OCCN1CCN(c2ncnc3nc[nH]c23)CC1,-0.04
CCSc1nc2ccccc2n1CC(=O)N1CCOCC1,2.11
Cn1c(/C(C#N)=C(\O)c2ccc(S(=O)(=O)N3CCCCC3)cc2)nc2ccccc21,0.84
Cc1c(N=c2c(=O)c3ccccc3c2=O)c(=O)n(-c2ccccc2)n1C,-0.22
CCOc1ccc(NC(=O)C2CC(C)=C(C)CC2C(=O)O)cc1 (configuration not stated),0.04
CCOC(=O)C1CCCN(S(=O)(=O)c2cn(C)c(=O)n(C)c2=O)C1 (configuration not stated),0.39
CCOC(=O)Nc1ccc2c(c1)N(C(=O)CCN1CCN3CCCC3C1)c1ccccc1CC2 (configuration not stated),0.00946
O=C(NCCN1CCOCC1)C1CCN(Cc2ccccc2O)CC1,-0.05
O=C(c1cccs1)N1CCN(S(=O)(=O)Cc2ccccc2)CC1,1.38
COc1ccc2oc(=O)c(NC(=O)C3CCCCC3)cc2c1,-0.29
O=S(=O)(c1ccc(C2CCCCC2)cc1)N1CCN(c2ncccn2)CC1,-0.42
O=S(=O)(c1ccccc1)N1CCN(CC(O)COc2ccc3c(c2)CCC3)CC1 (configuration not stated),-0.27
CCOC(=O)c1ccccc1NC(=O)Cn1cnc2c(oc3ccccc32)c1=O,-1.09
O=C(Cn1nc(-c2ccccc2)ccc1=O)NCCN1CCN(Cc2ccccc2)CC1,-1.19
Cn1c(=NC(=O)CSCC(=O)N2CCCCC2)sc2ccccc21,-1.08
Cn1nc(CC(=O)Nc2ncc(Br)s2)c2ccccc2c1=O,0.43
COC(=O)CSC1=C(C#N)C(c2ccc(C(C)C)cc2)CC(=O)N1 (configuration not stated),-0.59
O=C(OCCNC(=O)c1ccc2ccccc2n1)c1cccnc1,-0.16
Cc1ccc(CCNC(=O)C2CCN(C(=O)N(C)C)CC2)cc1,-1.02
CN1CCN(C(=O)c2cnn(-c3ccccc3)c2NC(=O)c2cccs2)CC1,-0.05
Cc1ccc(Nc2nc(OC(C(F)(F)F)C(F)(F)F)nc(N3CCOCC3)n2)cc1,-0.78
CCCCNC(=O)c1cc(-c2ccc(OC)cc2)on1,-2.19
O=C(NCc1ccc2c(c1)OCO2)C1CCN(S(=O)(=O)c2ccc(Br)s2)CC1,-0.96
O=C(NCc1ccccn1)Nc1ccc(F)cc1,-0.86
CCOc1ccc(C(=O)COC(C)=O)cc1,-1.28
CC(=O)Nc1cccc(NC(=O)c2oc3ccccc3c2C)c1,-0.43
O=C(Nc1nc(-c2ccncc2)cs1)C1COc2ccccc2O1 (configuration not stated),-0.00838
CN1CCc2c(sc3ncn4nc(-c5ccccc5O)nc4c23)C1,1.62
COc1cccc2cc(C(=O)n3ccc(C)n3)c(=O)oc12,0.43
O=C(NCc1n[nH]c(=S)n1-c1ccc(F)cc1)c1ccc(S(=O)(=O)N2CCCC2)cc1,2.57
O=C(CSc1nnc(-c2ccco2)c(-c2ccco2)n1)Nc1ccccc1,0.28
Cc1cccc(NC(=O)CSc2nnc(NC(=O)CN3CCOCC3)s2)c1,-0.55
CCOC(=O)C1C(c2cccc(Cl)c2Cl)NC(=O)NC1(O)C(F)(F)F (configuration not stated),-0.07
COc1ccc(-n2ncc3c(N(C)C4CCCCC4)ncnc32)cc1,-0.29
CCOc1cc(C)c(Cl)cc1S(=O)(=O)N(CC)CC,-2.01
COc1ccc(C(=O)CN2C3=NCCCN3c3ccccc32)cc1OC,0.11
COc1ccc(CCNc2nc(N3CCOCC3)nc(N3CCOCC3)n2)cc1OC,-0.04
O=C(NC1CCCc2ccccc21)C1CCN(S(=O)(=O)c2cccc3nonc23)CC1 (configuration not stated),0.48
O=C(NCc1cccs1)C1CCN(S(=O)(=O)c2ccc(Br)s2)CC1,-0.5

Assay outcomes as filed in PubChem.
